# Beta cell apopt = inhibitors of cytokine-induced beta cell apoptosis, primary screen, luminescence. INS-1E cytokine-induced death, ATP luminescence, 48 h; percent of positive-control rescue, neutral wells zero. protection from apoptosis, % (concentration not given with the values). 300,000 tested, 0.8% active. AID 435005, 2010;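 active = all replicates at 75% or more, or half of them and the mean; inconclusive = half reach 75% but not the mean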;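 note: 0% = cytokine-treated negative control wells and 100% = positive control rescue; higher means more ATP so stronger rescue from cytokine killing; wells of about 40 µL received 100 nL stock; the first replicate is given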
# ALR inh = inhibitors of human ALR sulfhydryl oxidase, primary screen, biochemical, H2O2 detection, HRP-luminol luminescence, single point; AID 485317, 2010; FAD-linked sulfhydryl oxidase ALR (Homo sapiens), P55789; purified ALR, DTT oxidation; inhibition, % (concentration not given with the values); 290,000 tested, 3.8% active;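 active = mean and each replicate at 75% or more; inconclusive = only one of the two met; inactive = neither met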;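 note: stock transfer was 7.5 nL into about 7.5 µL; 0% = neutral wells and 100% = wells with inactivated enzyme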
# Target sequence (P55789 whole entry, looked up): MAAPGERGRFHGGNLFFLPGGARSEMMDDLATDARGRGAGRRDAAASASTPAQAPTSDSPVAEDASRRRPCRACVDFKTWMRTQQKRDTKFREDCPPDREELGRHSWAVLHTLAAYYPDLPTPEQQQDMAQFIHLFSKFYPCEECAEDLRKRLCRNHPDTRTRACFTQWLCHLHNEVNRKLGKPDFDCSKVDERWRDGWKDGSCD
# AF4-AF9 inh = inhibitors of AF4 peptide binding to AF9, primary screen, biochemical, AlphaScreen, biotin-AF4 peptide, FLAG-AF9, single point. Protein AF-9 (Homo sapiens), P42568. inhibition, % at 10 µM. 350,000 tested, 0.47% active. AID 651704, 2012;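 active = every replicate reaching a set inhibition limit, whatever the replicate mean, cut at about 25% in these data; inconclusive = mean inhibition reaches that limit but some replicates miss it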;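 note: 0% = plate neutral control median and 100% = total signal loss; the record names both 10 and 1 µM as test concentration; the first replicate is given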
# Target sequence (P42568 whole entry, looked up): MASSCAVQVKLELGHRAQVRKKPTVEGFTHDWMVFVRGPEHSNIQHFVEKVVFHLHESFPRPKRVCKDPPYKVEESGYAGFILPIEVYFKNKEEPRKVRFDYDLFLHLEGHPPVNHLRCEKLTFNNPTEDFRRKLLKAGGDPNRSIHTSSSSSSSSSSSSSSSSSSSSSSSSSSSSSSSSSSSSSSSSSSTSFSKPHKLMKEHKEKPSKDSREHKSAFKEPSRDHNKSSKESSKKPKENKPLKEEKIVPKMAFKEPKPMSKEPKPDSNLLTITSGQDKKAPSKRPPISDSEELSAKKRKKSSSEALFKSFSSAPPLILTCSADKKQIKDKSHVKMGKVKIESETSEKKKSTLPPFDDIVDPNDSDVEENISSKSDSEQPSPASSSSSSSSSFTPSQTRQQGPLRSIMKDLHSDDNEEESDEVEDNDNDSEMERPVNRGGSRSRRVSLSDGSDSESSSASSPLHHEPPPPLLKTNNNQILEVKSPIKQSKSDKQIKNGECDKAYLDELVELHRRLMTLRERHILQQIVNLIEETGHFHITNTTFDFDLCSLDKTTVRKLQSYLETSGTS
# FGF22 binding = binders of human FGF22 protein, primary screen, FGF22 synaptogenesis inhibitor project, biophysical, thermal shift, single point | Fibroblast growth factor 22 (Homo sapiens), Q9HCT0 | recombinant FGF22 thermal shift, SYPRO orange fluorescence; percent of sucrose octasulfate shift, DMSO zero | calls only at 9.99 µM | 340,000 tested, 1.5% active | AID 651658, 2012;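 active = melting point raised past a set limit in the mean and every replicate; inconclusive = no clear call; three in four hits are not shown here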
# Target sequence (Q9HCT0 whole entry, looked up): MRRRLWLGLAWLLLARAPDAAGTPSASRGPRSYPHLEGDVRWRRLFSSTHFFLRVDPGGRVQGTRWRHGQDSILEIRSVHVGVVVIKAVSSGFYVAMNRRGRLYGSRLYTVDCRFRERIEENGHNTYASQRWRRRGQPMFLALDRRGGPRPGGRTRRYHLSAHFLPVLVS
# RanGTP-Imp inh = inhibitors of RanGTP-importin-beta interaction, primary screen, biochemical, FRET, CFP-Ran, YFP-importin-beta, homogeneous | AID 2216, 2009 | cell-free CFP-Ran/YFP-importin-beta FRET ratio | Ran GTPase (GTP-bound) - importin-beta complex | inhibition, % (test concentration not listed) | 300,000 tested, 1.1% active;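 active = most replicates above 15%; inconclusive = exactly half above 15%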;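 note: 0% = DMSO wells and 100% = Ran loaded with GDP instead of GTP; wells of about 40 µL received 100 nL stock; the first replicate is given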
# T cruzi inh = inhibitors of intracellular T. cruzi growth, primary screen, luminescence, NIH3T3 host cells; T. cruzi beta-gal in NIH3T3, 90 h; 300,000 tested, 1.4% active; AID 1885, 2009; inhibition, % (no concentration beside the values);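 active = mean inhibition across valid replicates above about 55%, limit read from the data; inconclusive = mean below that limit but half or more replicates reach it; inactive = mean below it, under half of replicates reach it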;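 note: signal also drops with host cell toxicity which is not excluded here; 0% = plate median of DMSO wells and 100% = zero luminescence signal; higher percent means less beta-gal luminescence so fewer parasites; stock transfer was 50 nL into about 50 µL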
# Calb FLC = C. albicans growth inhibition with fluconazole, primary screen, CaCi-2 strain, Alamar Blue fluorescence | AID 1979, 2009 | C. albicans CaCi-2 (fluconazole-resistant clinical isolate) + fluconazole, 48 h | growth inhibition, % (no concentration beside the values) | 300,000 tested, 0.57% active;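 active = most replicates above 75%; inconclusive = exactly half above 75%; inactive = most below 75%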;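 note: all wells also contain fluconazole at 8 µg/ml as a sub-toxic cotreatment; 0% = median of DMSO wells and 100% = median of geldanamycin control wells; wells of about 8 µL received 7.5 nL stock; the first replicate is given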
# rRNA inh HTS = reduced GFP signal of wild-type E. coli, primary screen, bacterial rRNA inhibitor project, GFP/RFP fluorescence, OD600, single point; E. coli WT GFP vs humanized-ribosome RFP mutants, 24 h; hits give low values; DMSO median 0, no signal -100; GFP signal change (wild-type ribosome), % (concentration not given with the values); 350,000 tested, 1.6% active; AID 720706, 2013;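 active = significant combined selectivity score with lowered wild-type GFP, culture density cut under 30%, mutant RFP and density less affected; inactive = any of these conditions unmet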; note: one replicate is shown; some compounds called inactive have numbers as strong as hits
# rRNA inh HTS OD600 = also measured in rRNA inh HTS; calls as there; OD600 change, %; measured here: OD600 growth;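 optical density of the mix in the first replicate; 0 = DMSO median and -100 = no signal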
# rRNA inh HTS RFP = further read-out of rRNA inh HTS, marked with its call; RFP signal change, %; measured here: RFP humanized mutant strains;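 first replicate; 0 = DMSO median and -100 = no signal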
# * = called active by the depositor; i = inactive; ? = inconclusive; · = not tested or not shown. An excerpt. The share of hits here may be higher or lower than overall.
# The opening 3 records (preview)
SMILES,Beta cell apopt,ALR inh,AF4-AF9 inh,FGF22 binding,RanGTP-Imp inh,T cruzi inh,Calb FLC,rRNA inh HTS,rRNA inh HTS OD600,rRNA inh HTS RFP
Cc1ccc(N2CC(c3nc4ccccc4n3C)CC2=O)cc1C (stereo not drawn),-5,-21,-4.2,i,-2.2,-8,-5,11,-3,-6.5
CN1CCN(Cc2c(O)ccc3c(=O)c(Oc4ccccc4Cl)c(C(F)(F)F)oc23)CC1,-5,-8,1.4,i,22*,-10,-11,-5,-4,-2.1
O=C(CN1C(=O)S/C(=C\c2ccc(Cl)cc2)C1=O)NNC(=O)c1ccccc1O,7,-28,·,·,3.5,12,26,·,·,·

# The listing, repeating the preview:
SMILES,Beta cell apopt,ALR inh,AF4-AF9 inh,FGF22 binding,RanGTP-Imp inh,T cruzi inh,Calb FLC,rRNA inh HTS,rRNA inh HTS OD600,rRNA inh HTS RFP
Cc1ccc(N2CC(c3nc4ccccc4n3C)CC2=O)cc1C (stereo not drawn),-5,-21,-4.2,i,-2.2,-8,-5,11,-3,-6.5
CN1CCN(Cc2c(O)ccc3c(=O)c(Oc4ccccc4Cl)c(C(F)(F)F)oc23)CC1,-5,-8,1.4,i,22*,-10,-11,-5,-4,-2.1
O=C(CN1C(=O)S/C(=C\c2ccc(Cl)cc2)C1=O)NNC(=O)c1ccccc1O,7,-28,·,·,3.5,12,26,·,·,·
CCCCCCCC(=O)N/N=C/c1ccco1,-6,43,·,·,-0.5,-18,-2,·,·,·
Cc1ccc(CNC(=O)c2cn(C)c(=O)c3c2c2ccccc2n3C)o1,-9,-7,·,·,2.6,-3,4,·,·,·
COC(=O)c1c(C)oc2ccc(N(C(=O)c3ccncc3)S(=O)(=O)c3ccc4ccccc4c3)cc12,105*,-2,·,·,0.3,-34,1,·,·,·
C[C@]12CCC(=O)C[C@@H]1CC[C@@H]1[C@@H]2CC[C@]2(C)C=CC[C@@H]12,-6,-12,-4.2,i,4.7,10,·,·,·,·
CCOc1cc(/C=N/NC(=O)CCn2nc(C)cc2C)ccc1O,2,99*,2.2,i,-3.7,-8,0,2,-3,0.9
CN(C)c1nc(NCc2ccccc2)nc(N/N=C/c2ccc(Cl)cc2Cl)n1,·,1,·,·,-0.1,27,8,·,·,·
CC(=O)c1cccc(OCC(=O)N2CCN(c3ccc(C(F)(F)F)cn3)CC2)c1,-1,0,-2.0,i,-5.7,17,-3,-25,-21,-1.8
COc1ccc(S(=O)(=O)Nc2ccc3oc(C)c(C(C)=O)c3c2)cc1,87*,1,·,·,0.6,15,26,·,·,·
COc1ccc(NC(=O)[C@H](NC(=O)[C@@H]2Cc3ccccc3CN2)c2ccccc2)cc1,-2,-2,0.7,i,-1.1,7,7,-2,-8,2.5
CCN(CC)c1ccc(C(=O)OCC(=O)N2CCN(c3ccccc3)CC2)cc1,-4,-3,·,·,3.0,4,-3,·,·,·
C/C(=N/NC(=O)Cc1cccs1)c1ccco1,-2,3,4.7,i,4.6,-18,-29,10,6,1.3
CCn1cc(C(=O)N2CCc3ccccc32)c(=O)c2cc(S(=O)(=O)N3CCCCCC3)ccc21,-6,-6,·,·,4.7,14,12,·,·,·
CCOC(=O)c1cc(NC(=O)c2ccc(Cl)cc2)c(=O)oc1-c1ccccc1,-7,·,·,·,3.8,-2,-3,·,·,·
CC(C)(C)N(Cc1ccccc1)C(=O)COC(=O)c1ccc(Br)o1,-2,-5,0.7,i,·,·,·,-32,-41,-7.3
Cc1c(NS(=O)(=O)c2ccccc2)cc(Cl)c(O)c1C,-2,99*,·,·,2.2,2,41,·,·,·
COc1ccc(S(=O)(=O)N2CCC(C(=O)NCc3ccccn3)CC2)cc1Cl,0,-9,·,·,2.8,-12,4,·,·,·
Cc1ccc(CSCc2nnc(SCC(=O)N3CCN(c4ccccc4)CC3)n2C)cc1,-6,52,·,·,1.2,11,-1,·,·,·

# Rewritten with values under each structure: part of the list above.
# Values run as follows: Beta cell apopt, ALR inh, AF4-AF9 inh, FGF22 binding, RanGTP-Imp inh, T cruzi inh, Calb FLC, rRNA inh HTS, rRNA inh HTS OD600, rRNA inh HTS RFP
CCn1cc(C(=O)N2CCc3ccccc32)c(=O)c2cc(S(=O)(=O)N3CCCCCC3)ccc21
    -6, -6, ·, ·, 4.7, 14, 12, ·, ·, ·
CCOC(=O)c1cc(NC(=O)c2ccc(Cl)cc2)c(=O)oc1-c1ccccc1
    -7, ·, ·, ·, 3.8, -2, -3, ·, ·, ·
CC(C)(C)N(Cc1ccccc1)C(=O)COC(=O)c1ccc(Br)o1
    -2, -5, 0.7, i, ·, ·, ·, -32, -41, -7.3

# Next section
SMILES,Beta cell apopt,ALR inh,AF4-AF9 inh,FGF22 binding,RanGTP-Imp inh,T cruzi inh,Calb FLC,rRNA inh HTS,rRNA inh HTS OD600,rRNA inh HTS RFP
COc1ccc(S(=O)(=O)Nc2nnc(C)s2)cc1,3,-12,·,·,1.6,0,-9,1,3,-4.9
OC(COCc1cccs1)CN1CCN(c2cccc(Cl)c2)CC1 (stereo not drawn),4,91*,5.7,i,-1.3,10,-2,-25,-44,-11
Cn1c(=O)n(CCCOc2ccc(Cl)cc2)c2ccccc21,-1,-1,·,·,0.7,15,0,·,·,·
Cc1ccc(CCNC(=O)c2nnn(-c3cc(C)cc(C)c3)c2N)cc1,1,·,·,·,0.6,23,-17,·,·,·
Cn1nc([N+](=O)[O-])nc1S(C)(=O)=O,·,·,-0.8,i,?,9,0,4,8,-6.0
O=C(CCNc1ccc(Cc2ccncc2)cc1)c1cccc([N+](=O)[O-])c1,-4,10,2.1,i,7.0,25,-5,-1,4,3.3
Cc1ccc(CN2CCN(c3cccc4[nH]ccc34)CC2)cc1,-6,99*,19,i,2.9,27,-26,-3,-7,0.3
COc1cc(C(=O)OCC(=O)NC2CCCCCC2)ccc1OCC(C)C,-2,-10,-9.4,i,1.1,0,-2,14,9,3.2
CCOC(=O)C1(CCCc2ccccc2)CCN(C(=O)Cn2nc(C)nc2C)CC1,6,·,3.4,i,-3.1,-7,-1,-8,-3,-4.8
Cc1c(Cl)c(C(=O)NNC(=S)Nc2ccc(F)cc2)nn1C,-9,81*,-0.8,i,?,-5,-28,2,7,0.1
CCOC(=O)C1(CCOc2ccccc2)CCN(Cc2cccn2-c2ncccn2)CC1,4,-2,-12,i,3.0,9,-21,-9,-20,14
O=C1CN(CC(=O)NC2CCCc3ccccc32)CCN1 (stereo not drawn),-1,-1,3.5,i,1.1,-12,-4,11,10,1.9
O=C(/C(=C(\[O-])c1ccccc1)[n+]1ccc2ccccc2c1)c1ccccc1,1,-16,·,·,-11,24,-6,·,·,·
COc1ccccc1N1CCN(C(=O)c2ccc(COc3cccc4c3OC(C)(C)C4)cc2)CC1,·,0,2.8,i,4.0,14,-1,-7,-7,-1.6
CN(C)c1cccc(C(=O)OCC(=O)NCC2CCCO2)c1 (stereo not drawn),1,9,·,·,1.0,-19,0,·,·,·
COc1cc(CNC2CCCC2)cc(Cl)c1OCc1ccc(F)cc1,18,-9,·,·,?,33,1,·,·,·
O=S(=O)(c1ccccc1)N1CCN=C1SCc1c(F)cccc1Cl,-3,3,-0.9,i,-1.5,10,12,-9,-45,-5.1
O=C(NCc1ccc(-n2cccc2)cc1)c1cccc(F)c1,3,-9,2.6,i,-1.9,20,-1,0,5,-2.6
O=C(CSc1cccc(C(F)(F)F)c1)NCc1ccccc1,-6,·,-0.7,i,-0.1,7,26,-15,-20,-10
COc1cc(-c2nc3c[n+](CC(=O)c4ccccc4)ccc3n2C)cc(OC)c1OC,-9,·,·,·,-1.8,-7,-19,·,·,·
O=C(CCN1C(=O)/C(=C/c2ccccc2)SC1=S)NCCc1ccc(O)cc1,-13,1,·,·,0.6,-25,-1,·,·,·
O=C(CN(C(=O)CCC(=O)Nc1nccs1)c1ccc2c(c1)OCCO2)NCc1ccco1,-4,-4,·,·,0.2,-3,-23,·,·,·
CC(C)Nc1oc(-c2cccc3ccccc23)nc1C#N,-7,-6,·,·,5.4,?,0,·,·,·
O=C(Nc1ccc(Br)cc1)c1cccc(S(=O)(=O)Nc2ccccn2)c1,-3,-3,-1.9,i,3.5,-4,1,1,4,-0.7
CCCCN1CCc2c([nH]c3ccc(C)cc23)C1=O,4,1,·,·,0.1,3,-1,·,·,·
COC(=O)C1Cc2c([nH]c3ccccc23)C2(CCN(Cc3ccccc3)CC2)N1 (stereo not drawn),·,·,30*,i,-7.5,71*,-24,-4,-15,2.3
Cc1ccc2nc(C3CCCN3Cc3nc(CCC(C)C)no3)[nH]c2c1 (stereo not drawn),-1,-13,2.6,i,-1.0,-13,-10,-5,-10,-1.0
O=C(C1COc2ccccc2O1)N1CCCCC1 (stereo not drawn),-5,-4,-5.2,i,·,·,·,·,·,·
C[C@H]1CCC(=O)N(CCSc2ccc(Br)cc2)CC1,-11,-7,0.4,i,·,·,·,-12,-12,-14
O=C(CN1CCc2ccccc21)NN1CC(=O)N(c2ccccc2)CC1=O,-4,-13,-2.7,i,1.2,-19,0,1,4,-0.6
c1ccc(SCCOCCN2CCOCC2)cc1,-1,2,-2.0,i,1.9,12,-3,5,11,-1.3
COc1ccc(/C=C2\N=C(C(C)(C)C)OC2=O)c(OC)c1,-4,-2,0.8,i,-1.8,-19,0,1,9,1.2
O=C(COC(=O)[C@H](Cc1ccccc1)NC(=O)c1ccco1)NC(c1ccccc1)c1ccccc1,-6,4,·,·,-2.0,-5,3,·,·,·
O=S(=O)(c1ccccc1)N1CCN(c2ccccc2)CC1,1,1,-2.5,i,-2.0,-3,-3,13,14,2.5
C=CCc1cccc(/C=N/NC(=O)CCC(=O)Nc2ccc(F)cc2)c1O,93*,5,·,·,3.2,33,1,·,·,·
Cc1cc([N+](=O)[O-])nn1CC(=O)Nc1cc(F)ccc1F,-5,·,-0.6,i,?,10,-8,-18*,7.9*,7.6*
CN(C)S(=O)(=O)c1cccc(-c2csc(N/N=C/c3ccco3)n2)c1,1,-3,·,i,-0.8,-4,-8,6,13,2.7
CCC(CC)C(=O)Nc1nnc(SCC(=O)NC(C)(C)C)s1,-6,1,-0.8,i,6.6,-17,10,12,13,0.3
Cc1cc(=O)oc(C)c1C(=O)OCC(=O)c1ccc(Br)cc1,-2,-8,·,·,3.8,-15,-6,·,·,·
COc1cc(/C=N/NC(=O)c2nonc2N)cc(OC)c1OC,2,-6,-3.0,i,0.0,-5,-1,16,7,0.1
Cc1cc(Cl)ccc1OCC(=O)N/N=C1\CC2C=CCC12 (stereo not drawn),-2,2,·,·,2.1,-7,4,·,·,·
O=c1oc2ccccc2c(N2CCC(c3ccccc3)CC2)c1[N+](=O)[O-],-10,-3,-0.1,i,0.8,-6,-11,7,2,-1.4

# Bioassay records from PubChem.
